2A StopGo: lowers the luciferase signal of an FMDV 2A StopGo reporter; human cells with a luciferase reporter of 2A StopGo recoding; control for the full effect not named in the record; Potency, µM (highest dose often 57.9 µM), for the others: top-dose signal change, negative = less light; hit rate 1.2% among 410,000; AID 1159524; active = well fitted falling curve with a large enough effect; inconclusive = small, poorly fitted or top-dose-only effect; inactive = no such curve, though single readings can be large or run the other way; tested in HEK293T cells; further: on the % scale 0 is the no-effect control and ±100 the full control effect; nearly all actives have a fitted effect of over 45% in size; luciferase light after 4 h
RE007 growth inh: less growth of the S. pombe RE007 Vpr strain. S. pombe RE007 Vpr strain, BacTiter-Glo ATP luminescence, 24 h; control for the full effect not named in the record. Potency, µM (series often up to 92.2 µM), without a hit: top-dose activity change, negative = less growth. hit rate 0.21% among 360,000; active = well fitted falling curve with a large enough effect; inconclusive = small, poorly fitted or top-dose-only effect; inactive = no such curve, though single readings can be large or run the other way;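 further: on the % scale 0 is the no-effect control and ±100 the full control effect; nearly all actives have a fitted effect of over 50% in size; the assay follows cell death caused by Vpr and the record does not say whether a fall means rescue or toxicity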
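Fission yeast strain RE007, carrying one chromosomally integrated HIV-1 vpr copy, was seeded at OD 0.01 in PMG+AL medium with 23 nL pinned compound. After 24 h at 30 °C and 99% humidity, viability was read by BacTiter-Glo luminescence.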
SARS PLP yeast: blocks SARS-CoV papain-like protease in a yeast assay; S. cerevisiae expressing SARS-CoV PLpro, growth rescue; control for the full effect not named in the record; Potency, µM (doses to about 32.9 µM), inactives show at the highest dose activity, positive = growth rescue; hit rate 0.19% among 330,000; active means well fitted rising curve with a large enough effect; inconclusive means small, poorly fitted or top-dose-only effect; inactive means no such curve, though single readings can be large or run the other way; further: 0% is about no effect; nearly all actives have a fitted effect of over 55% in size; growth read by luminescence after 48 h
Active calls of the source: *; ? = inconclusive; [ ] = another dose, or the depositor's remark. Potency means the concentration at half of the fitted maximal effect. This is a subset (hit frequency here may not be typical).

Every second line gives: 2A StopGo | RE007 growth inh | SARS PLP yeast
NC(=O)C1CCCN(C(=O)c2ccc(S(=O)(=O)N3CCCCCC3)cc2)C1 (stereo not drawn)
 : -6% | 1% | -5%
CC(OC(=O)C1CCCC1)C(=O)Nc1ncc(Cl)cc1Cl (stereo not drawn)
 : -19% | 7% | 3%
COc1ccccc1NS(=O)(=O)c1ccc(C(=O)N2CC(C)OC(C)C2)cc1 (stereo not drawn)
 : -27% | 7% | 0%
CCN1C(=O)[C@H]2[C@@H](c3ccc(-c4cc(C(C)=O)cs4)cc3)N[C@@](Cc3ccccc3)(C(=O)OC)[C@H]2C1=O
 : -20% | 0% | -5%
NC(=O)c1ccc(NC(=O)COC(=O)CNC(=O)c2sc3ccccc3c2Cl)cc1
 : 8% | -22% | 9%
O=C1OCC=C1NNC(=O)c1cccnc1
 : 13% | 6% | 4%
CCC1(c2ccc(F)cc2)NC(=O)N(CC(=O)Nc2cc(C)on2)C1=O (stereo not drawn)
 : -11% | 2% | -7%
COc1ccc(-c2csc(-c3ccc(C(=O)O)cc3)n2)cc1
 : 2% | 0% | 1%
CC1c2cccn2CCN1S(=O)(=O)c1ccc(F)cc1 (stereo not drawn)
 : -17% | 0% | -1%
CC(=O)Nc1nc(SCC(=O)NCc2ccc(F)cc2)[nH]c(=O)c1NC(=O)c1cccs1
 : -3% | 17% | 2%
Cc1cc(OCC(=O)OCC(=O)NCc2ccc3c(c2)OCO3)ccc1Cl
 : -5% | 0% | 3%
CCOC(=O)C1=C(COC(=O)CCc2ccccc2)NC(=O)NC1C (stereo not drawn)
 : -21% | 1% | -2%
Cc1ccc(C(=O)N[C@H](C(=O)NC2CCCCCCC2)C(C)C)cc1
 : -9% | 2% | 0%
Cc1cc(C)cc(NC(=O)COC(=O)CCC2CCCC2)c1
 : -12% | -8% | -7%
CCOCc1c(C(=O)NCc2ccccc2CN2CCCC2)oc2ccccc12
 : -26% | 4% | 7%
Cc1cc(Cn2nnc3ccccc32)c(O)c(C(C)(C)C)c1
 : 16% | 12% | 1%
CC(C)c1ccc(CN2CCN(C(=O)CSc3nnnn3C3CC3)CC2)cc1
 : ? | -5% | -2%
COc1ccccc1NC(=O)c1ccc(NC(=O)COC(=O)c2cncc(Br)c2)cc1
 : -7% | 1% | 3%
Cc1noc(C)c1C(=O)OCC(=O)Nc1ccccc1SCC#N
 : 43%[activator] | -5% | -1%
COc1ccc(C(=O)NC2CCN(Cc3ccccc3)C2)cc1S(=O)(=O)N1CCOCC1 (stereo not drawn)
 : -18% | 2% | -11%
Cc1cc(Br)c(OCc2ccc(C(=O)N/N=C/c3ccc[nH]3)cc2)c(Br)c1
 : ? | 12% | -1%
COC(=O)c1ccc(C)c(NC(=O)CSc2nc3[nH]c(=O)cc(O)c3s2)c1
 : -4% | -15% | 1%
CC(NC(=O)c1ccc(NC(=O)CC2SC(N3CCCC3)=NC2=O)cc1)c1ccc(F)cc1 (stereo not drawn)
 : -5% | 2% | 2%
COc1ccccc1-c1sc2ccccc2c1-c1ccc(Br)nc1
 : -25% | -9% | -27%
CCOC(=O)C1=CN(Cc2cccc(F)c2)S(=O)(=O)N(CC)C1c1ccc(C(F)(F)F)cc1 (stereo not drawn)
 : -28% | -6% | -6%
CC1CCCN(C(=O)COC(=O)Cc2c[nH]c3ccccc23)C1 (stereo not drawn)
 : -10% | -3% | 0%
CCOC(=O)[C@H]1[C@H]2COc3ccc(Cl)cc3[C@@H]2N2C(=O)c3cc(Br)ccc3NC(=O)[C@@]12C
 : 0% | -1% | 1%
O=C(CSc1cc(Cl)ccc1Cl)Nc1ccc(N2CCOCC2)cc1
 : -8% | -5% | 4%
COc1ccc(NC(=O)CN(C)CC(=O)Nc2ccc(C)c(S(=O)(=O)N3CCCCC3)c2)cc1
 : -22% | -9% | 0%
CC(=O)Nc1ccc(NC(=O)COC(=O)C2CCCCC2)cc1
 : 9% | -1% | -1%
COc1ccc(-c2c(-c3ccccc3OC)oc3ccccc23)cn1
 : 21% | -9% | 1%
COC(=O)c1ccccc1S(=O)(=O)N1CCC(C(=O)N2CCC2)CC1
 : 1% | -3% | -4%
CC(=O)C[C@H](O)CC(=O)[C@H]1OC(=O)CCCCC/C=C/Cc2ccccc21
 : 0% | -13% | -1%
COc1ccc(-c2oc(=O)c3cc(OC)c(OC)cc3c2C#C[C@]2(O)CC[C@H]3[C@@H]4CCc5cc(OC)ccc5[C@H]4CC[C@@]32C)cc1
 : -1% | 12% | 2%
CC(C)(C)[C@H]1COC(=O)CCC/C=C/C[C@H](CC(=O)NCCO)C(=O)N1
 : -13% | -10% | 0%
O=C(NCC(c1cccs1)N1CCOCC1)c1cc2ccccc2oc1=O (stereo not drawn)
 : -27% | -12% | -1%
COc1cc(Cl)c(C)cc1NC(=O)CSc1nnc(CN2CCCC2)o1
 : -11% | -3% | 0%
O=C(/C=C/c1ccco1)Nc1ccccc1N1CCCC1
 : -8% | -6% | -2%
CN1C(=O)C(=O)N(CC(=O)Nc2ccccc2OC(F)F)C1=O
 : 1% | 2% | -1%
O=C(/C=C/c1ccc(S(=O)(=O)N2CCOCC2)cc1)NCCc1ccc(C(F)(F)F)cc1
 : ? | 0% | 2%
Cc1nc2ccc(NS(=O)(=O)c3ccccc3Cl)cc2s1
 : 21% | -8% | -6%
CCOC(=O)C1=CC[C@]2(C)c3c(c4ccccc4n3C)C(=O)C1N2C
 : -12% | -9% | 6%
CCOC(=O)[C@H]1[C@H]2COc3ccc(OC)cc3[C@@H]2N2C(=O)c3cc(C)ccc3NC(=O)[C@@]12C
 : -12% | 11% | 0%
COc1ccc2c(COC(=O)CNS(=O)(=O)c3ccccc3)cc(=O)oc2c1
 : -7% | 2% | -1%
O=C(COc1ccc(F)cc1Br)NCC1(N2CCOCC2)CCCCC1
 : ? | 7% | -1%
CCc1ccc(/C=C(\C)C(=O)c2c(C)cc(C)[nH]c2=O)cc1
 : 8% | -3% | 0%
COc1ccc2cc(C(=O)N(C)CC(=O)Nc3ccccc3Br)ccc2c1
 : 36%[activator] | -3% | -2%
COc1cc2sc(-c3ccccc3OC)c(-c3ccc(OCCN4CCOCC4)cc3)c2cc1OC
 : -19% | -14% | 2%
CC(C)NC(=O)Nc1ccc2c(c1)C(=O)N([C@H](C)CO)C[C@H](C)[C@@H](CN(C)C(=O)Nc1ccccc1)O2
 : 4% | 11% | -3%
CCCCNC(=S)N(C)N=C1CCC(c2ccccc2)CC1 (stereo not drawn)
 : -23% | 0% | -1%
O=C(COC(=O)/C=C/c1ccco1)Nc1cc(S(=O)(=O)N2CCOCC2)ccc1Cl
 : -17% | -1% | -4%
CN(CC(=O)Nc1ccc(F)cc1)CC(=O)N1CCCCC1
 : -1% | -8% | -7%
CC1CCCCN1C(=O)COC(=O)/C=C/c1ccc2ccccc2n1 (stereo not drawn)
 : 51%[activator] | -8% | 1%
CCN1C[C@@H]2[C@@H]3C(=O)N(Cc4ccccc4)C(=O)[C@@H]3[C@](Cc3ccccc3)(C(=O)OC)N2C1=NC
 : -18% | -11% | -18%
COC(=O)[C@H]1C[C@@H](c2ccccc2)[C@H](C)C1(C)C
 : -9% | 1% | 2%
COc1ccc(-c2cc(N3C(=O)Nc4ccccc4N3O)n[nH]2)c(OC)c1
 : 7% | 1% | 1%
COc1ccc(Cl)cc1C(=O)OCC(=O)c1ccc[nH]1
 : -10% | -23% | 2%
COC(=O)c1c(-c2ccc(OC)cc2)sc2cc(OC)c(OC)cc12
 : -18% | -6% | 0%
CCCCNc1c(-c2ccc(OC)c(SC3CCCCC3)c2)nc2cc(C)ccn12
 : 25µM* | -22% | 4%
Cc1ccc(C(=O)NNC(=O)c2ccncc2)cc1[N+](=O)[O-]
 : -3% | -3% | 1%

The results go on:
structure,2A StopGo,RE007 growth inh,SARS PLP yeast
COC(CNC(=O)C1CCCN(S(=O)(=O)c2c(C)noc2/C=C/c2cccs2)C1)OC (stereo not drawn),-2%,4%,4%
COc1ccc(/C=C/C(=O)OCC(=O)NCCCc2ccccc2)cc1OC,-9%,6%,0%
COc1cc(OC)cc(C(=O)NNC(=O)CCOc2ccccc2OC)c1,-12%,15%,1%
C=CCC[C@@H](Cc1ccc(F)cc1)C(=O)OC[C@@H](NC(=O)[C@@H](CC=C)CC(=O)N[C@@H](CO)Cc1ccccc1)C(C)(C)C,?,11%,-7%
C/C(=N/NC(=O)CNS(=O)(=O)c1ccc(C)cc1)c1cccc([N+](=O)[O-])c1,-7%,?,-1%
OCC[C@H]1C[C@H](O)[C@@H](O)[C@]2(OCCc3ccccc32)O1,-6%,15%,-10%
COc1ccc(CN(C)C(=O)C2CCN(C(=O)Nc3ccccc3)CC2)cc1OC,-12%,-10%,2%
COc1cn(-c2ccccc2)nc1C(=O)OCC(=O)Nc1ccc(C)c(C)c1,-14%,13%,5%
COc1ccc(Oc2ccc(N/C=C/C(=O)C(C)(C)C)cc2)cc1,-13%,-13%,-1%
CC(=O)C[C@@H](O)CC(=O)[C@@H]1OC(=O)CC/C=C\Cc2ccccc21,-15%,-2%,-3%
C=CCC[C@@H](Cc1ccc(F)cc1)C(=O)OC[C@@H](Cc1ccccc1)NC(=O)[C@H](CC=C)CC(=O)NCCO,-28%,-9%,-2%
COc1ccc([C@H]2CC(=O)C=C(c3ccc(CNC(=O)OC(C)(C)C)cc3)C2)cc1,?,-6%,4%
O=C(OCC(=O)c1c[nH]c2ccccc12)c1cncc(Br)c1,-3%,-17%,-4%
Cc1ccc(S(=O)(=O)n2cc(-c3ccccc3)c3ccccc32)cc1,14%,20%,0%
COc1ccc(CNC(=O)CC2C[C@H](C(=O)N3CCOCC3)[C@@]3(CCC4CCCC4)c4[nH]c5ccccc5c4CCN3C2=O)cc1OC (stereo partly drawn),9%,-2%,?
CCOC(=O)CC(=O)NC(CC(=O)OC)c1ccc(C(C)C)cc1 (stereo not drawn),-4%,12%,2%
COc1ccc(CCNC(=O)c2cccc(S(=O)(=O)N3CCOCC3)c2)cc1OC,-3%,-1%,-3%
O=C(NCCc1ccccc1)c1ccc2c(c1)S(=O)(=O)N=C1CCCCCN12,31%[activator],1%,2%
Cc1cc(NC(=O)C(C)C)n(-c2nc3ccccc3s2)n1,23%,-6%,0%
O=c1[nH]cnc(O)c1C(c1ccc2c(c1)OCO2)c1c(O)nc[nH]c1=O,5%,-18%,-1%

Reprinted from the part before: 5 entries, followed by the next part.
structure,2A StopGo,RE007 growth inh,SARS PLP yeast
CCOC(=O)CC(=O)NC(CC(=O)OC)c1ccc(C(C)C)cc1 (stereo not drawn),-4%,12%,2%
COc1ccc(CCNC(=O)c2cccc(S(=O)(=O)N3CCOCC3)c2)cc1OC,-3%,-1%,-3%
O=C(NCCc1ccccc1)c1ccc2c(c1)S(=O)(=O)N=C1CCCCCN12,31%[activator],1%,2%
Cc1cc(NC(=O)C(C)C)n(-c2nc3ccccc3s2)n1,23%,-6%,0%
O=c1[nH]cnc(O)c1C(c1ccc2c(c1)OCO2)c1c(O)nc[nH]c1=O,5%,-18%,-1%
COc1ccccc1CC(=O)OCC(=O)N1CCN(c2ccc(F)cc2)CC1,-24%,-5%,-9%
CC(C)(O)[C@@H]1CC[C@@](C)(C2CC[C@]3(C)C2[C@H](O)CC2[C@@]4(C)CC[C@H](O)C(C)(C)C4[C@@H](O[C@H]4O[C@@H](CO)[C@H](O)[C@@H](O)[C@@H]4O[C@@H]4O[C@H](CO)[C@@H](O)[C@H](O)[C@H]4O)C[C@]23C)O1 (stereo in doubt),-11%,2%,7%
COc1cc(NC(=O)C[n+]2ccc(C(=O)c3ccccc3)cc2)cc(OC)c1,-18%,-15%,-8%
Cc1cn([C@H]2C[C@H](O)[C@@H](CCC(=O)NCCc3c[nH]c4ccccc34)O2)c(=O)[nH]c1=O,-7%,6%,3%
O=C(NCCC1CCCCN1S(=O)(=O)c1ccc(Cl)cc1)C(=O)NCCN1CCOCC1 (stereo not drawn),0%,-7%,3%
COc1ccccc1-c1sc2cc3c(cc2c1C#CCO)OCO3,0%,3%,1%
COc1ccccc1C(=O)NNC(=O)C(=O)NC(C)(C)C,-15%,-7%,-1%
Cn1cnnc1SCC(=O)c1cc2ccccc2o1,14%,-26%,2%
COC(=O)C1=C(c2c(C)noc2C)C[C@@H]2CC[C@H]1N2C(=O)N1CCCC1,-6%,4%,-6%
CC(=O)Nc1ccc(NC(=O)c2cccc3c2-c2ccccc2C3=O)cc1,11%,6%,-2%
O=C(COC(=O)c1ccc(F)cc1)NCC1COc2ccccc2O1 (stereo not drawn),-19%,-5%,2%
CCN(C(=O)COC(=O)c1n[nH]c2ccccc12)c1ccccc1,-12%,0%,-1%
Cc1noc(C)c1S(=O)(=O)N(C)C[C@H]1Oc2ccc(NC(=O)Cn3cnnn3)cc2C(=O)N([C@H](C)CO)C[C@@H]1C,-22%,-12%,0%

High-throughput results (PubChem BioAssay)
